PrP 5UTR inh: inhibition of PrP 5' UTR reporter expression. cell-based PrP 5' UTR mRNA reporter, plate reader. inhibition, % (concentration not given with the values). 0.35% of 340,000 active;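 active = every replicate at 50% or more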;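 also: 0 = median of the neutral control wells; tested in H4 reporter cells; numbers are from one replicate; inactives centre near -14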
BJeLR lethal: MLPCN primary cell-based screen for lethality selective to Ras in HRASV12 cells; BJeLR (HRASV12) viability, CellTiter-Glo ATP luminescence, 48 h; reference of the scale not given here; 0.17% of 300,000 active; AID 1554, 2009; inhibition, % (no concentration beside the values);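 active = replicate mean above 50%; inconclusive = above 50% but judged a plate artefact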;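 also: 50 nL library stock added to about 25 µL; numbers are from one replicate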
ugtP null kill: growth inhibition of ugtP-null S. aureus, primary screen, RN4220 ugtP deletion, OD600; growth inhibition, % (no concentration beside the values); 0.54% of 330,000 active; 16 h; some inactives read as strong as hits;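 active = z-score under -3 and OD600 up to 0.15 on both plates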;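 also: plate controls were untreated wells for no effect and antibiotic for full effect; wells of about 80 µL received 100 nL stock; the first replicate is given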
Mtb hypoxia inh: PubChem AID 1159583; M. tuberculosis hypoxia-regulated fluorescent reporter, fluorescence; fluorescence inhibition, % (no concentration beside the values); 0.1% of 300,000 active;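 active = 35 to 45% if threefold the growth effect, above 45% if 1.5-fold the growth effect; inactive = the rest, general growth blockers included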;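 also: wells of about 50 µL received 100 nL stock; 0% = vehicle wells and 100% = reference inhibitor wells; whole bacteria with a GFP reporter of the hypoxia response; strong numbers were not always called active; many hits fall short of the cut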
Sa RN4220 lethal: growth inhibition of S. aureus RN4220, primary screen, OD600; 16 h; inhibition, % (test concentration not listed); 0.33% of 330,000 active; AID 1259311, 2017;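 active = z-score of -3 or lower and OD600 up to 0.18 on both plates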;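 also: plate controls were untreated cells for no effect and reference antibiotic for full effect; stock transfer was 100 nL into about 80 µL; one replicate is shown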
Bead autofluor: flagged as autofluorescent in microsphere protease counterscreen. compound autofluorescence counterscreen, microsphere flow cytometry; active compounds read high. fluorescence intensity (no concentration beside the values). 3.1% of 360,000 active;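 active = at least 3 SD above the mean of all compounds, about 16000 in these data; inconclusive = too few beads counted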;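 also: 100 nL of 1 mM stock went into each well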
Mtb hypoxia inh growth: also measured in Mtb hypoxia inh; calls as there; growth inhibition, %; measured here: M. tuberculosis growth (absorbance);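 0% = vehicle and 100% = reference antibiotic; read after six days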
Active calls of the source: *; ? = inconclusive; . = no result given. Compounds as they come (roughly 4% active in at least one column).

SMILES | PrP 5UTR inh | BJeLR lethal | ugtP null kill | Mtb hypoxia inh | Mtb hypoxia inh growth | Sa RN4220 lethal | Bead autofluor
COc1ccc(N2CC(C(=O)N3CCN(c4ccccc4)CC3)CC2=O)cc1 (configuration not stated) | -9 | 4 | 2 | 5 | -4 | -0.4 | 5681
Cc1[nH]c2c(C)cccc2c1CN1CCC(CO)(Cc2ccccc2)CC1 | 8 | -1 | 1 | 5 | 13 | -1.1 | 3439
O=C(CN1C2CCCC1CC(NC(=O)C1CCCCC1)C2)NCc1ccc(F)cc1 (configuration not stated) | -16 | 19 | 5 | 13 | 2 | 4.2 | 3632
CN(C)c1cc(N/N=C/c2ccc(Cl)cc2)nc(N(C)C)n1 | -17 | 3 | . | . | . | . | 2667
O=C(NCC1CCCO1)C1CC(=O)N(c2ccc(F)c(Cl)c2)C1 (configuration not stated) | -18 | -14 | 3 | -1 | 3 | 4.1 | 5775
Cc1nn2c(=O)c(NC(=O)c3ccc(F)cc3)cnc2s1 | -33 | -2 | 14 | . | . | -1.5 | 3158
COC(=O)N1CCN(c2ccc(OC)cc2)CC1 | -25 | -1 | 2 | 6 | 9 | 0.4 | 10944
CCC(CC)c1nc2ccccc2c(=O)[nH]1 | -3 | 6 | 4 | 10 | 4 | 0.3 | 4326
COc1ccc(-c2csc(NC(=S)NC(=O)c3ccc4ccccc4c3)n2)cc1OC | -17 | -4 | 1 | -1 | -9 | 2.7 | 5092
O=C(Nc1ccccn1)c1cccs1 | -38 | 3 | -3 | 8 | 8 | 5.8 | 2515
Clc1cccc(N2CCNCC2)n1 | -6 | 5 | 2 | 7 | 2 | -0.9 | 5050
COc1ccc(S(=O)(=O)n2ccc(-c3cnc(-c4ccccc4)s3)n2)cc1 | -36 | -11 | 23 | 2 | 7 | -9.5 | 3999
CCOC(=O)N1CCN(C(=O)c2cc(COc3ccc(F)cc3F)on2)CC1 | -16 | 0 | -3 | 1 | 1 | -2.3 | ?
O=C(CN1C2=NCCCN2c2ccccc21)c1ccc(Cl)cc1Cl | -9 | 0 | -2 | 8 | 8 | -4.1 | 2182
CC(=O)OC1(c2ccccc2)CC(C(C)(C)C)CN(C(C)(C)C)C1 (configuration not stated) | -7 | 4 | 9 | 4 | 1 | -0.2 | 2232

Among those listed so far, these have fluorine.
SMILES | PrP 5UTR inh | BJeLR lethal | ugtP null kill | Mtb hypoxia inh | Mtb hypoxia inh growth | Sa RN4220 lethal | Bead autofluor
O=C(CN1C2CCCC1CC(NC(=O)C1CCCCC1)C2)NCc1ccc(F)cc1 (configuration not stated) | -16 | 19 | 5 | 13 | 2 | 4.2 | 3632
O=C(NCC1CCCO1)C1CC(=O)N(c2ccc(F)c(Cl)c2)C1 (configuration not stated) | -18 | -14 | 3 | -1 | 3 | 4.1 | 5775
Cc1nn2c(=O)c(NC(=O)c3ccc(F)cc3)cnc2s1 | -33 | -2 | 14 | . | . | -1.5 | 3158
CCOC(=O)N1CCN(C(=O)c2cc(COc3ccc(F)cc3F)on2)CC1 | -16 | 0 | -3 | 1 | 1 | -2.3 | ?

Carrying on.
SMILES | PrP 5UTR inh | BJeLR lethal | ugtP null kill | Mtb hypoxia inh | Mtb hypoxia inh growth | Sa RN4220 lethal | Bead autofluor
COc1ccccc1OC(=O)Nc1ccc(Cl)cc1 | -22 | -7 | -6 | 1 | 0 | -4.1 | 2884
Cc1ccc(C(=O)O)cc1NC(=O)c1ccc2c(c1)C(=O)N(c1ccc([N+](=O)[O-])cc1)C2=O | -11 | 0 | 3 | 9 | 5 | 1.6 | 3563
COC(=O)[C@H](Cc1ccccc1)NC(=O)N1CCCCCC1 | -31 | 5 | 2 | 11 | 10 | 0.6 | 3498
CN(NC(=O)c1ccccc1F)c1nc(C(F)(F)F)nc2ccccc12 | 62* | 46 | -2 | 9 | 2 | 1.0 | 4381
COc1ccc(C(=O)O)cc1N1C(=O)Nc2ccccc2N1O | -29 | -2 | 3 | 13 | 6 | 2.8 | 5094
Cc1cccc(CN2CCC(Oc3ccc(C(=O)N4CCCC4)cc3)CC2)n1 | -10 | 1 | -7 | 6 | 1 | 0.3 | 5915
CCCCc1cc(=O)oc2c3c(cc(OCC(=O)N4CCC[C@H]4C(=O)O)c12)OC(C)(C)CC3 | -7 | -4 | 0 | . | . | 0.3 | 5746
CCOC(=O)N1CCC(N2CCN(S(=O)(=O)c3ccc4ccccc4c3)CC2)CC1 | -7 | 5 | 5 | 3 | 2 | 2.1 | 8136
COc1ccc(N2CCN(S(=O)(=O)CCNC(=O)Cc3ccc([N+](=O)[O-])cc3)CC2)cc1 | -5 | -3 | 6 | 3 | 5 | -1.2 | 5272
COc1ccc(S(=O)(=O)NC2CCCC2)cc1Br | -13 | 1 | 3 | . | . | 0.4 | 4152
O=C(CN(Cc1ccco1)C(=O)CNS(=O)(=O)c1ccc(F)cc1)NCc1ccco1 | -23 | 4 | 6 | 13 | 4 | 0.9 | 3816
COc1ccccc1N1CCN(CCCCOc2ccc(F)cc2)CC1 | -13 | -8 | 3 | -7 | -2 | 0.8 | 4348
CCN(c1ccccc1)S(=O)(=O)c1cccc(C(=O)O)c1 | -15 | 6 | -2 | 4 | 4 | 2.5 | 6897
COc1cc(C(=O)OCc2csc(CC(=O)Nc3ccccc3C)n2)ccc1OCC(C)C | -2 | . | 42 | 7 | 3 | -1.8 | 5143
O=C(NCCC1=CCCCC1)C(=O)NCc1ccncc1 | 9 | -2 | 7 | 2 | -4 | 4.7 | 4378

Look-ups from above:
`Cc1cccc(CN2CCC(Oc3ccc(C(=O)N4CCCC4)cc3)CC2)n1` in Mtb hypoxia inh growth: 1
`CCCCc1cc(=O)oc2c3c(cc(OCC(=O)N4CCC[C@H]4C(=O)O)c12)OC(C)(C)CC3` in Bead autofluor: 5746

(next part)
SMILES | PrP 5UTR inh | BJeLR lethal | ugtP null kill | Mtb hypoxia inh | Mtb hypoxia inh growth | Sa RN4220 lethal | Bead autofluor
COc1cccc(NC(=O)c2nn(-c3ccc(OC)cc3OC)c(=O)c3ccccc23)c1 | -6 | -2 | 5 | 4 | -1 | 8.0 | 2213
Cc1cc(C(=O)NC2CCCN(Cc3ccc(Cl)cc3)C2)c(C)o1 (configuration not stated) | 7 | 10 | 5 | 2 | 5 | 2.4 | 7836
COc1ccc(CC(=O)Nc2ccccc2N2CCCCC2)cc1OC | . | 6 | 0 | 5 | 9 | 2.6 | 4888
O=C(O)c1ccc2ncc(NC(=O)c3ccc(F)cc3)c(=O)n2c1 | -19 | 5 | -1 | 15 | 3 | 4.6 | 4434
COc1cc(NCCCNC(C)C)c2nccc(C)c2c1 | -4 | . | 1 | -4 | 21 | 1.9 | 3432
C/C=C/c1ccc(OCC(=O)NCc2ccccc2OC)c(OC)c1 | 1 | -1 | 9 | 7 | 4 | 1.4 | 3289
Cc1ccc(-c2noc(CSc3nnc(Cc4ccccc4)n3-c3cccc(C)c3)n2)cc1 | . | 3 | -16 | 2 | 2 | 5.8 | 8119
CCOC(=O)/C(C(N)=NCc1ccco1)=C(/O)c1ccccc1 | -86 | 1 | -2 | 15 | 2 | 8.4 | 23453*
CCN(CC(=O)NCc1cccs1)C(=O)/C=C/c1cc(OC)ccc1OC | -11 | . | 4 | 10 | -2 | 3.8 | 3311
O=C(O)/C=C/c1ccc(O)c(O)c1 | 17 | -7 | . | . | . | . | 6920
CCN1CCN(Cc2c(C)[nH]c3ccc(OC)cc3c2=O)CC1 | -16 | 0 | -2 | 11 | 2 | -7.0 | 2858
NC(=O)COC(=O)c1cc(S(=O)(=O)N2CCOCC2)ccc1N1CCCCC1 | 13 | 9 | 2 | . | . | -0.2 | 4659
CC(C)(C)NC(=O)NC(=O)CN1CCN(c2ccccc2)CC1 | -18 | 5 | 8 | -5 | 2 | 5.9 | 4420
NS(=O)(=O)c1ccc(CCNC(=O)Cc2ccc(S(=O)(=O)N3CCOCC3)s2)cc1 | -19 | -6 | -4 | 1 | 6 | 3.1 | ?
COc1ccccc1C(=O)COC(=O)CNS(=O)(=O)c1ccc(NC(C)=O)cc1 | -10 | 6 | -1 | 7 | -4 | -1.9 | 5410
O=C(COC(=O)CN1C(=O)C2CCCCC2C1=O)NC1CCS(=O)(=O)C1 (configuration not stated) | -23 | 2 | 8 | 1 | -10 | -0.1 | 2680
CCOC(=O)c1ccc(NC(=S)NN2CCOCC2)cc1 | -36 | -8 | 9 | 6 | 16 | 4.8 | 8976
Cc1ccc(N(CC(=O)NCc2ccco2)C(=O)CCC(=O)Nc2nccs2)cc1 | -14 | 5 | 18 | -3 | 6 | 3.4 | 3716
Cc1cc(C(F)F)n2nc(C(=O)NCc3ccccc3F)nc2n1 | 5 | -4 | 6 | . | . | 6.1 | 3549
O=C(NCC(=O)N1CCCCCCC1)c1cccc([N+](=O)[O-])c1 | -28 | . | 0 | 10 | 7 | -3.5 | 3021
CCCCNCCOCCOc1ccc(F)cc1 | -1 | -8 | -3 | 15 | 4 | 7.1 | 3555
COC(=O)C1CCN(C(=O)c2cc(-c3ccc(Cl)s3)nc3ccccc23)CC1 | -1 | . | 4 | 4 | 6 | -3.5 | 3886
Cc1ccc(SCC(=O)OC(C)C(=O)Nc2ccc(S(N)(=O)=O)cc2)cc1C (configuration not stated) | -21 | -8 | 9 | 9 | 1 | 2.8 | ?
CC(=O)Cn1c(CN2CC(C)CC(C)C2)nc2c1c(=O)n(C)c(=O)n2C (configuration not stated) | -31 | -7 | -4 | 1 | 9 | 3.9 | 10277
Cc1nnc(SCC(=O)NC2CCCCC2)n1C1CCCCC1 | -14 | 14 | 3 | 1 | 0 | -0.7 | 8845
Cc1cccc(-c2noc(-c3ccccc3C(=O)NCc3ccco3)n2)c1 | -43 | -3 | 3 | -1 | -3 | 5.1 | ?
CC(C(=O)Nc1cc([N+](=O)[O-])ccc1Cl)N1CCN(c2ccc(O)cc2)CC1 (configuration not stated) | 8 | -40 | 7 | 8 | -2 | 7.0 | 1970
COc1ccc(CC(=O)Nc2ccc(S(=O)(=O)Nc3cc(C)on3)cc2)cc1 | -15 | -5 | 5 | 8 | 9 | 0.6 | 3807
CC1(C)C(c2ccc(Cl)cc2)=[N+]([O-])C2(CCCC/C2=N\O)N1O (configuration not stated) | -4 | 4 | . | . | . | . | 5843
COc1cccc(C2=CC(=O)CC(c3ccc(F)cc3)C2)c1OC (configuration not stated) | . | . | 7 | 10 | 7 | 2.0 | .
O=C(CCNS(=O)(=O)c1ccccc1C(F)(F)F)NCCCSc1ccccc1 | -13 | -8 | -2 | 1 | 8 | 0.1 | 5614
Cc1ccc(NC(=O)CCCCCC2NC(=O)NC2C)cc1 (configuration not stated) | -28 | 8 | -2 | -2 | 1 | -0.8 | 3319
Cn1c(=O)cc(Nc2ccc(Cl)cc2)[nH]c1=O | -19 | -16 | -9 | 2 | -4 | 4.5 | 3541
COc1ccc(OC)c(NC(=O)CCCNC(=O)c2ccc(Cl)cc2)c1 | -21 | 6 | 1 | 3 | 10 | -0.4 | 3723
Cc1noc(C)c1NC(=O)N(C)CC1Oc2c(NC(=O)Nc3ccc4c(c3)OCO4)cccc2C(=O)N(C(C)CO)CC1C (configuration not stated) | . | . | 3 | 18 | 1 | 1.2 | .
Cc1ccc(CSc2nnc(-c3ccc4c(c3)OCO4)o2)cc1 | -6 | -2 | 12 | . | . | -1.3 | 2873
CCN(CC(=O)Nc1ccc(NC(C)=O)cc1)C(=O)C1CC(=O)N(Cc2ccc(C)cc2)C1 (configuration not stated) | -38 | 9 | -3 | 3 | 1 | -1.5 | ?
COc1cc(C(=O)O)ccc1OC(C)=O | -22 | 6 | 14 | 1 | 2 | 4.4 | 7395
Brc1ccc(-c2noc(COc3ccc4ccccc4c3)n2)o1 | -25 | 1 | 8 | 0 | 5 | -1.5 | 5382
Cc1cc(N2CC(C(=O)O)CC2=O)ccc1Br (configuration not stated) | -15 | -9 | -2 | . | . | -2.4 | 4282
CCCCn1c(SCC(=O)c2ccccc2)nc2ccsc2c1=O | -38 | 0 | -8 | 1 | 2 | 4.8 | 2101
Cn1/c(=N/N=C/c2ccc(Cl)c([N+](=O)[O-])c2)sc2ccccc21 | -18 | -5 | . | . | . | . | 3169
COc1nc(-c2ccccc2)cc(-c2ccc(OC)c(OC)c2)n1 | -149 | -4 | -6 | 3 | 6 | 26 | 19447*
O=C(O)/C=C/C(=O)Nc1ccc2c(c1)C(=O)c1ccccc1C2=O | -17 | -4 | 15 | -2 | 6 | 5.1 | .
Fc1ccc(C(CNC(=S)NC2CCCCC2)N2CCOCC2)cc1 (configuration not stated) | -14 | -5 | 6 | 2 | -1 | 4.0 | 3827
O/N=C/c1cc2ccccc2n1Cc1ccccc1F | -5 | -6 | . | . | . | . | 3989

Compound activity deposited in PubChem BioAssay by several laboratories.
